VDR inh – Inhibitors of the vitamin D receptor (VDR): qHTS; VDR-SRC2-3 peptide fluorescence polarization, 2 h; Potency, µM, inactives show max response, negative = inhibition, most hits filed as inhibitors; hit rate 0.93% among 400,000; AID 504847, 2011; active = well fitted inhibition curve with a large enough effect; inconclusive = small, poorly fitted or top-dose-only effect, or another doubt; inactive = no such curve, though single readings can be large or run the other way; also: series mostly up to about 120 µM
Target sequence (P11473 whole entry, looked up): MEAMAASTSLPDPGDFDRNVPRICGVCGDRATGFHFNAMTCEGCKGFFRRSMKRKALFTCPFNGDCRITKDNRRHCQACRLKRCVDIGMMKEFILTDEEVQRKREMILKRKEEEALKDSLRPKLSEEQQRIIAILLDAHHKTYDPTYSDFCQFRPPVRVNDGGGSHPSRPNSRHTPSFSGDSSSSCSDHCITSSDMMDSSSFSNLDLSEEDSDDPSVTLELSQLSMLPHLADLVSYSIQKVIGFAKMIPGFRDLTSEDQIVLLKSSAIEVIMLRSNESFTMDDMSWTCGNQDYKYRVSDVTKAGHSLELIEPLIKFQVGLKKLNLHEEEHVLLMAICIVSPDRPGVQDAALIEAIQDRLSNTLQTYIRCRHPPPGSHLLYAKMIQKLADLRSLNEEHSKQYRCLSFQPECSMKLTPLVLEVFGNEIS
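Two reagent solutions held at 4 deg C in the dark were dispensed, compounds pinned at 23 nl, and the mixture incubated 2 h at room temperature. Read-out: fluorescence polarization of VDR–SRC2-3 peptide binding.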
An asterisk follows results filed as active; ? = inconclusive; & = joins results of further samples. % is scaled to controls: 0 for no effect and ±100 for the full control effect; potency is read from the fitted curve at half-maximal effect. The list is partial, so the mix of outcomes need not match the whole.

SMILES	VDR inh
COc1ccc(S(=O)(=O)N2CCN(C)CC2)cc1NC(=O)c1ccccc1	7%
O=C(NCCC1=CCCCC1)c1ccc(Cl)c([N+](=O)[O-])c1	-10%
O=C(c1ccco1)N1CCN(C(=O)c2ccc(COc3ccc(F)cc3)o2)CC1	-18%
CCOC(=O)N1CCN(CC(O)COC2CC(C)CCC2C(C)C)CC1 (stereo unspecified)	4%
ON=C(CCc1ccccc1)CCc1ccccc1	-3%
CC(=O)Nc1c(I)c(C(=O)N[C@H]2[C@@H](O)[C@H](O)[C@H](CO)O[C@@H]2O)c(I)c(N(C)C(C)=O)c1I	1%
O=[N+]([O-])c1ccccc1S(=O)(=O)Nc1cccc(-c2ccc(N3CCCC3)nn2)c1	-10%
Cc1cc(O)c(C(=O)/C=C/c2ccc(C(C)C)cc2)c(=O)o1	?
COc1cc(SC)ccc1C(=O)Nc1nccs1	-4%
O=c1c(CO)cc(CO)cc(CO)c1O	0%
CC1=C(C(=O)NCCc2ccc(Cl)cc2)C2(CCCCC2)OC1=O	8%
CCN(CC)C(=O)CSc1nc(O)cc(=O)n1CC	-3%
CCOc1ccc(NC(=S)NCC(c2cccnc2)N2CCOCC2)cc1 (stereo unspecified)	-15%
COc1cc(NC(=O)C2=CC(c3ccc(C)cc3)=NS(=O)(=O)N2C)cc(OC)c1OC	5%
O=C(Cc1csc(NC(=O)Nc2ccc(Cl)cc2)n1)NC1CCCC1	1%
O=c1[nH]cnc(O)c1Nc1cccc(Cl)c1	0%
O=C(NC(NC(=S)Nc1c(Cl)cccc1Cl)C(Cl)(Cl)Cl)c1cccc([N+](=O)[O-])c1 (stereo unspecified)	3%
CC/C(=N\NC(=O)C1CCCC1)c1cccc(Br)c1	-7%
Cc1ccc(S(=O)(=O)N2CCCCCC2)cc1C(=O)NCc1ccccn1	-1%
Cc1cccc(NC(=O)CNC(=O)Cn2ncc(Cl)c(Cl)c2=O)c1C	-20%
OCCC1CN(Cc2cccc3c2OCO3)CCN1C1CCCC1 (stereo unspecified)	-5%
Cc1ccccc1-n1c(SCC(=O)NC2CCS(=O)(=O)C2)nc2ccccc2c1=O (stereo unspecified)	3%
O=C(NN=C1CCN(Cc2ccccc2)CC1)c1ccccc1O	-10%
O=C1N/C(=N\c2ccccn2)SC1Cc1ccccc1Cl (stereo unspecified)	1%
Cc1ccc2c(COC(=O)C3CSC4(C)CCC(=O)N34)cc(=O)oc2c1C (stereo unspecified)	8%
CCSc1sccc1C1C(C#N)=C(N)N(c2cccnc2)C2=C1C(=O)CC(C)(C)C2 (stereo unspecified)	2%
Nc1nc(CSc2ccccn2)nc(Nc2ccccc2)n1	-3%
CCOc1cc(NS(=O)(=O)c2ccc(OC)cc2)c(OCC)cc1NC(C)=O	7%
COCCNC(=O)CN1C(=O)c2cccc3cccc1c23	-2%
CCN1CCN(CCNC(=O)c2ccc(/C=C3/Sc4ccccc4N(Cc4cccc(Cl)c4)C3=O)cc2)CC1	24%
COc1ccc2[nH]c(C)c(C(=O)CN(C)CC3OCCO3)c2c1	7%
Cc1cc(C)c2[nH]c(=O)c(CN(Cc3ccco3)C(=O)C3CCCO3)cc2c1 (stereo unspecified)	-9%
O=C(CCC1N=C2c3ccccc3N=C(SCC(=O)Nc3ccccc3F)N2C1=O)NCc1ccco1 (stereo unspecified)	-1%
Cc1cc(Cl)ccc1NC(=O)CN1C(=O)COc2ccc(S(=O)(=O)N3CCC(C)CC3)cc21	-7%
COc1cccc(C(=O)NC2CCN(CC(=O)Nc3nccs3)CC2)c1	-4%
Cc1c(C)c(C)c(S(=O)(=O)NCCc2ccccn2)c(C)c1C	1%
COc1ccc(CNC(=O)CCc2c(C)nc3cc(-c4ccc(OC)cc4OC)nn3c2C)cc1	-8%
CC(Cl)C(=O)Nc1cc(C(C)(C)C)nn1-c1ccccc1 (stereo unspecified)	-21%
CC(=O)c1ccc(S(=O)(=O)N2CCN(C(=O)c3ccc(COc4ccccc4)o3)CC2)cc1	-5%
Cc1cc(C)cc(NC(=O)Cn2nnc(C(=O)NCCc3ccccc3)c2N)c1	-2%&-14%
Clc1ccc(CNc2ccc(CNc3ncn[nH]3)cc2)c(Cl)c1	24%
CC1CCCCC1NC(=O)CSc1ccc([N+](=O)[O-])cc1 (stereo unspecified)	-10%
O=C(c1ccccc1)c1ccccc1N1C(=O)C=CC1=O	25µM*
COCCOC(=O)C1=C(C)NC(=S)NC1c1cccs1 (stereo unspecified)	7%
COc1ccc(/C=C2/SC(c3ccc(C)cc3)=NC2=O)cc1OC	50µM*

As entered above:
Reading for Cc1c(C)c(C)c(S(=O)(=O)NCCc2ccccn2)c(C)c1C under VDR inh: 1%
Reading for COc1ccc(CNC(=O)CCc2c(C)nc3cc(-c4ccc(OC)cc4OC)nn3c2C)cc1 under VDR inh: -8%
Reading for O=C(c1ccccc1)c1ccccc1N1C(=O)C=CC1=O under VDR inh: 25µM*
Reading for Cc1cc(Cl)ccc1NC(=O)CN1C(=O)COc2ccc(S(=O)(=O)N3CCC(C)CC3)cc21 under VDR inh: -7%

Next part
SMILES	VDR inh
c1cnc(-c2noc(CN3CCN(C4CCCC4)CC3)n2)cn1	-11%
CC1(O)c2ccccc2C(=O)N1Cc1ccccc1 (stereo unspecified)	21%
O=C(CN(C(=O)CNS(=O)(=O)c1ccccc1)c1ccc(F)cc1)NCc1ccco1	-22%
Nc1ncnc2c1nc(Br)n2[C@H]1O[C@H]2COP(=O)(O)O[C@H]2[C@@H]1O	-1%
CC(=O)Nc1ccc(S(=O)(=O)Nc2cccc3cccnc23)cc1	-13%
CC(=O)N(CC(=O)Nc1nn(-c2ccccc2)nc1C(N)=O)Cc1ccccc1	0%
O=C(O)C1CCCN1C(=O)Nc1ccc(Cl)cc1 (stereo unspecified)	-24%
Cc1nc2ccccc2c2oc(C(=O)N3CCN(c4ccc([N+](=O)[O-])cc4)CC3)cc12	5%
CS(=O)(=O)N1CCN(c2ncccn2)CC1	-8%
Cc1cc(C)c(NC(=O)Cn2c(=O)n(CCCCC(=O)NCc3ccccc3Cl)c(=O)c3ccccc32)c(C)c1	5%
CCOc1cc(C2C3=C(CCCC3=O)OC3=C2C(=O)CCC3)cc([N+](=O)[O-])c1O	-8%
CC1CCN(S(=O)(=O)c2ccc(NC(=O)CSc3nnnn3C)cc2)CC1	4%
Cc1ccc(C2CC(=O)N(Cc3ccccc3F)c3c2c(C)nn3-c2nc(C)cc(C)n2)cc1 (stereo unspecified)	24%
CCc1nnc(NC(=O)C2CCCN(c3nc(C)cc(C)n3)C2)s1 (stereo unspecified)	9%
CCOC(=O)C1=C(C)N=C2SC(C)C(=O)N2C1c1ccc(C(=O)OC)cc1 (stereo unspecified)	1%

Reformatted: four of the compounds above.
O=C(c1ccccc1)c1ccccc1N1C(=O)C=CC1=O
  VDR inh = 25µM*

COCCOC(=O)C1=C(C)NC(=S)NC1c1cccs1 (stereo unspecified)
  VDR inh = 7%

COc1ccc(/C=C2/SC(c3ccc(C)cc3)=NC2=O)cc1OC
  VDR inh = 50µM*

c1cnc(-c2noc(CN3CCN(C4CCCC4)CC3)n2)cn1
  VDR inh = -11%

Fetched by compound from the entries so far:
SMILES	VDR inh
CC(=O)N(CC(=O)Nc1nn(-c2ccccc2)nc1C(N)=O)Cc1ccccc1	0%
Nc1ncnc2c1nc(Br)n2[C@H]1O[C@H]2COP(=O)(O)O[C@H]2[C@@H]1O	-1%
CCOc1cc(C2C3=C(CCCC3=O)OC3=C2C(=O)CCC3)cc([N+](=O)[O-])c1O	-8%
Cc1ccc(C2CC(=O)N(Cc3ccccc3F)c3c2c(C)nn3-c2nc(C)cc(C)n2)cc1 (stereo unspecified)	24%

VDR inh: entries above that show a hit.
SMILES	VDR inh
O=C(c1ccccc1)c1ccccc1N1C(=O)C=CC1=O	25µM*
COc1ccc(/C=C2/SC(c3ccc(C)cc3)=NC2=O)cc1OC	50µM*

(further entries)
SMILES	VDR inh
OCCC1CN(Cc2cccn2-c2ncccn2)CCN1Cc1ccccc1 (stereo unspecified)	-4%
COC(=O)c1ccc(C2C(C(=O)c3ccco3)=C(O)C(=O)N2c2cc(C)on2)cc1 (stereo unspecified)	-5%
CCOC(=O)CNC(=O)CSc1nnc(Cn2c(=O)sc3ccccc32)n1-c1ccccc1C	10%
CCC(C)NC(=O)CN(c1cc(Cl)ccc1OC)S(C)(=O)=O (stereo unspecified)	-8%
COc1ccccc1N1Cc2ccc(OC)c(OC)c2C1=O	12%
Cc1nn(Cc2ccccc2Cl)c(C)c1C(=O)N(C)CC(=O)Nc1cccc(F)c1	-13%
CCOC(=O)c1sc(N2C(=O)C(O)=C(C(=O)c3ccco3)C2c2cccc([N+](=O)[O-])c2)nc1C (stereo unspecified)	71µM*
Cc1scc(C(=O)NCc2ccco2)c1-c1ccccc1	?
COCC(C)NC(=O)Cc1ccc(Cl)cc1 (stereo unspecified)	7%
Cc1onc(-c2ccccc2Cl)c1C(=O)NCCN1CCOCC1	-13%
CCCC(C)c1oc(=O)cc(O)c1C (stereo unspecified)	-29%
COc1ccccc1OCCNC(=O)c1ccc(C)c(S(=O)(=O)N2CCOCC2)c1	22%
COc1cccc(N(CC(=O)N2CCCCCC2)S(C)(=O)=O)c1	-19%
Cc1cc(C)cc(N(C(=O)C(F)(F)F)C(C(=O)NC2CCCCC2)c2cccs2)c1 (stereo unspecified)	-9%
Cc1ccc(N(C(C)C(=O)Nc2ccc(S(=O)(=O)N3CCOCC3)cc2)S(C)(=O)=O)cc1 (stereo unspecified)	17%
COc1ccc(NC(=O)N(CCC(C)C)C(C)c2ccccn2)c(OC)c1 (stereo unspecified)	-13%
CN1CC(=O)NC1=NC(=O)c1cc(F)c(F)cc1Cl	-21%
COc1cccc(-n2c(SCC(=O)Nc3ccc(F)cc3F)nc3c([nH]c4ccccc43)c2=O)c1	5%
CSc1ccc(/C=C2/C(C)=C(CC(=O)O)c3cc(F)ccc32)cc1	45µM*
Cc1ccc(CCSc2ccc(F)cc2)cn1	18%
Cc1ccc(N2C(=O)C3C4CC(=O)C(c5ccccc54)C3C2=O)cc1 (stereo unspecified)	11%
COc1cccc(N2CC(C(=O)Nc3ccc(C(=O)OC(C)C)cc3)CC2=O)c1 (stereo unspecified)	3%
CC1CC(C)CN(c2cc(N(C)CCO)c([N+](=O)[O-])c3nonc23)C1 (stereo unspecified)	-6%
Cc1nc([N+](=O)[O-])cn1CCC#N	5%
O=C(O)c1cc(=O)c2cc(Cl)ccc2o1	3%
CCOC(=O)c1cccc(NC(=O)CSc2nnc(-c3ccoc3C)n2CCOC)c1	11%
CC(=O)NC12CC3CC(C1)CC(C(=O)Nc1nc4ccc(S(C)(=O)=O)cc4s1)(C3)C2	-5%
CCN(CC(=O)Nc1ccccc1C(F)(F)F)C(=O)CCS(=O)(=O)c1ccc(C)cc1	-8%
COc1nc(Nc2ccc(O)cc2)nc(OC(C(F)(F)F)C(F)(F)F)n1	17%
Cc1cccc(OCCCC(=O)NCc2ccco2)c1	-3%
Cc1ccc(-c2cc3c(n2-c2ccccc2F)CC(C)(C)CC3=O)cc1	-2%
O=C(CCC(=O)N1CCCCCC1)NCc1ccc(F)cc1	-2%
CCC1CCCCN1C(=O)CSc1nnc(-c2cccs2)o1 (stereo unspecified)	-19%
O=C(NCCc1ccc(Cl)cc1)C1CCN(S(=O)(=O)c2cccs2)CC1	6%
COc1ccc(CCNc2nc(-c3ccc(C)cc3)cc(C(F)F)n2)cc1OC	7%
CCN(CC)C(=O)C1CCCN(c2ncnc3c2cnn3-c2ccc(Cl)cc2)C1 (stereo unspecified)	-2%
Cc1sc2ncnc(SCC(=O)NCC3CCCO3)c2c1C (stereo unspecified)	9%
O=C(Nc1ccc2c(c1)nc1n2CCSC1)c1ccco1	-3%
COC(=O)c1ccc(NC(=O)C(=O)NCC(c2cccnc2)N2CCN(c3ccccc3)CC2)cc1 (stereo unspecified)	6%
c1cncc(-c2nn3c(Cn4cnc5ccccc54)nnc3s2)c1	-99%
COC(c1ccccc1)c1nnc(CCC(=O)NCc2cccc(-n3cccn3)c2)o1 (stereo unspecified)	0%
C=C1N(c2cccc(Cl)c2)C(=O)OC1(C)C	-23%
COc1ccc2nc(C)cc(SCC(=O)OC(C)C)c2c1	14%
CC(C)NS(=O)(=O)c1ccc2c3c(cccc13)CC2	9%
NNC(=O)CNS(=O)(=O)c1ccc([N+](=O)[O-])cc1	10%
O=C(CSc1nnc(-c2cccnc2)n1Cc1ccco1)N1CCc2ccccc21	16%
O=C(COC(=O)c1c[nH]c(=O)[nH]c1=O)NCc1ccccc1	-13%
Cc1cc(C)c2[nH]c(=O)c(CN(Cc3cccs3)C(=S)NCC3CCCO3)cc2c1 (stereo unspecified)	0%
Cc1ncc([N+](=O)[O-])n1S(=O)(=O)c1cc(Cl)ccc1Cl	-1%
Cc1cc(S(=O)(=O)NC(C)C)ccc1OCC(=O)Nc1ccc2c(c1)OCCO2	6%
CCOc1ccc(CCNC(=O)c2cccnc2N2CCCC2)cc1OCC	-3%
COc1cccc(NC(=O)c2cccc(C(=O)Nc3cccc(OC)c3)c2)c1	-10%
O=S(=O)(Nc1ccc(N2CCCCC2)cc1)c1ccccc1	-18%
Cc1ccc(NC(=O)C(c2ccccc2)N2CCN(CC(=O)N3CCOCC3)CC2)cc1 (stereo unspecified)	-3%
O=C(Nc1ccc(Br)cc1)c1cc(-c2cccs2)on1	-18%
COc1ccc(S(=O)(=O)Nc2ccc3c(c2)C(=O)N([C@H](C)CO)C[C@H](C)[C@@H](CN(C)C(=O)Nc2ccc4c(c2)OCO4)O3)cc1	-21%
Cc1[nH]c2ccccc2c1C(=O)CSc1ccccn1	21%
O=C(COC(=O)Cc1ccccc1F)Nc1cccc(S(=O)(=O)NC2=NCCCCC2)c1	10%
O=C(CN1C(=O)NC2(CCCCCCC2)C1=O)NCc1ccccc1Cl	5%
O=C(Nc1ccc(Cl)c(S(=O)(=O)N2CCCC2)c1)c1nn(CCO)c(=O)c2ccccc12	-3%
CCN1C(=O)/C(=C\N2CCN(C(=O)c3ccco3)CC2)SC1=S	-3%
